# Assay outcomes (PubChem)
# RGS16-Gao HTS – RGS16-Galphao interaction regulator (human) | binding response (% of control), % at 10 µM | hit rate 0.38% among 220,000 | bead-based flow cytometry RGS16-Galphao binding, fluorescence; actives lie on both sides | O15492+P09471;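 active = below 25% or above 175%, edge rows of some plates excepted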;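 note: Galphao activated by GDP with aluminum fluoride before binding; 100% = wells without compound and 0% = beads without RGS; some results beyond the cut were filed as inactive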
# HSV replic up – increases HSV replication in cells | HSV replication augmentation in cells, fold increase | maximum fold increase | hit rate 0.005% among 220,000;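 active = peak rise of 1.5-fold or more in the series; tested in PC3 cells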;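 note: first round at 10 µM; read as green reporter fluorescence; hits show the peak of a series up to 25 µM; 1 = signal of infected wells without compound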
# INS promoter inh – TRM-6 insulin promoter activity inhibition; TRM-6 cells (human fetal islet line), insulin promoter-eGFP reporter, imaging; reporter expression induced with tamoxifen; inhibition, % at 2 µM; hit rate 0.9% among 130,000;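 active = inhibition above the mean plus 3 SD, with well images judged a real hit on visual review, cut at about 60% in these data, passing the limit was not always enough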
# PKD1 kinase inh – inhibitors of human PKD1 kinase; Q15139; PKD1 kinase fluorescence polarization assay; inhibition, %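 (about 10 µM by stock and volumes)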; hit rate 0.056% among 200,000;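 active = inhibition of 50% or more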;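 note: controls were vehicle for no effect and a reference inhibitor for full effect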
# Target sequence (Q15139 whole entry, looked up): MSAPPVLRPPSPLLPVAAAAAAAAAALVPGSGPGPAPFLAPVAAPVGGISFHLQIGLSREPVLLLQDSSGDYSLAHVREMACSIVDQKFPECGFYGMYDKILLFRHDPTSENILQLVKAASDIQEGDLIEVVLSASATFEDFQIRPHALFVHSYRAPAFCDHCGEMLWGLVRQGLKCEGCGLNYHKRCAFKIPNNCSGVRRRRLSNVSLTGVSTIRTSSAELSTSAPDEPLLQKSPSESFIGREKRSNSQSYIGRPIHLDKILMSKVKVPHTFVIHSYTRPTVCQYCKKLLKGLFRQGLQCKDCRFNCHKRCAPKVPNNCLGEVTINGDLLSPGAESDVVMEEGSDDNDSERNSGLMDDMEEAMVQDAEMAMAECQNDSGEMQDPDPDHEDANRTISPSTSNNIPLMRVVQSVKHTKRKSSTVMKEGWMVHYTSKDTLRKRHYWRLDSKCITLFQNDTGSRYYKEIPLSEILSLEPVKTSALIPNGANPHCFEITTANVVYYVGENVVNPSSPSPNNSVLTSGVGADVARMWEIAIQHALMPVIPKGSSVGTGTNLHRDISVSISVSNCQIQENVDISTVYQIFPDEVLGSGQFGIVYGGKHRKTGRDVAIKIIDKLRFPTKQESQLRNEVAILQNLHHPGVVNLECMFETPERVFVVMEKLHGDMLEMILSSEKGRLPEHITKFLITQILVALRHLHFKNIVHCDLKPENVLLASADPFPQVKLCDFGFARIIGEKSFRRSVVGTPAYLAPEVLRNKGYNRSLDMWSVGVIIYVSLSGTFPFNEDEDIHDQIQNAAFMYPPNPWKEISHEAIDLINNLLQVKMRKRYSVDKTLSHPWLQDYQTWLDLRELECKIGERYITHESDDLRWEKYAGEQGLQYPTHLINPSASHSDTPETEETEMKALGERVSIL
# GALR2 agonist – agonists of human galanin receptor 2 (GALR2) | O43603 | GALR2-expressing cells, agonist activation read-out | activation, %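 (tested at 5 µM)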 | hit rate 0.48% among 140,000;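 active = above mean plus 3 SD of all compounds, about 5% in these data, not always enough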;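 note: 0% = vehicle buffer wells and 100% = reference agonist at full effect; tested in CHO reporter cells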
# INS promoter inh cell count – also measured in INS promoter inh; calls as there; normalized cell count, %; measured here: cell count, toxicity; reference of the scale not given here;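 cells exposed to compound for 48 h; stained nuclei by imaging scaled within each plate; lower means fewer cells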
# HSV replic up primary fold – second read-out of HSV replic up, no call of its own (marks repeat the call); fold increase; compound at 10 µM; measured here: primary screen fold increase 10 uM; tested in PC3 cells;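 GFP signal in the first replicate; 1 = infected wells without compound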
# * hit, by the source's call; i = inactive; / = not tested or not shown.
entry	SMILES	RGS16-Gao HTS	HSV replic up	HSV replic up primary fold	INS promoter inh
1	COC(=O)C(NC(=O)C(CC(C)C)NC(=O)C1CCC(C)CC1)C(C)C (stereo unspecified)	106	i	1.1	-21
2	Cc1cccc(OC(=O)c2cn(C)nc2C(F)(F)F)c1C	104	i	0.88	-32
3	S=c1sc2c(N3CCOCC3)ncnc2n1-c1ccccc1	94	i	0.88	/
4	Cc1nc(-c2c(C(=O)NNC(=O)Nc3c(C)cccc3C)noc2C)cs1	104	i	1.1	/
5	O=C(NCc1ccccc1)c1ccco1	102	i	1	10
6	O=c1cc(CNc2ccc(Br)cc2)nc2sccn12	101	i	1	11
7	COC(=O)Cn1c2ccc(OC)cc2c2nc3ccccc3nc21	100	i	0.85	23
8	CC(C)N(C(=O)COC(=O)CNS(=O)(=O)c1ccccc1F)c1ccccc1	103	i	0.99	/
9	O=C(O)c1ccc(C2CCCCC2)cn1	99	i	0.92	12
10	O=C(c1ccc(OC2CCN(C(=O)c3cccnc3)CC2)cc1)N1CCCCCC1	105	i	1.1	/

entry	INS promoter inh cell count	PKD1 kinase inh	GALR2 agonist
1	83	6	-1.1
2	66	-2	1.1
3	/	-7	-3.6
4	/	/	/
5	29	-2	-1.4
6	115	-3	-0.8
7	218	-3	-1.7
8	/	-6	/
9	148	6	-0.8
10	/	8	/

# Whole records as entered above. Order of values: RGS16-Gao HTS | HSV replic up | HSV replic up primary fold | INS promoter inh | INS promoter inh cell count | PKD1 kinase inh | GALR2 agonist
# O=C(NCc1ccccc1)c1ccco1 across the screens: 102 | i | 1 | 10 | 29 | -2 | -1.4
# O=c1cc(CNc2ccc(Br)cc2)nc2sccn12 across the screens: 101 | i | 1 | 11 | 115 | -3 | -0.8
# Cc1nc(-c2c(C(=O)NNC(=O)Nc3c(C)cccc3C)noc2C)cs1 across the screens: 104 | i | 1.1 | / | / | / | /

# (list continues)
entry	SMILES	RGS16-Gao HTS	HSV replic up	HSV replic up primary fold	INS promoter inh
11	COc1cccc(N(CC(=O)Nc2ccc3c(c2)OCO3)S(=O)(=O)c2ccccc2)c1	102	i	0.96	0
12	COc1ccc(CC(=O)Nc2nnc(C)s2)cc1	98	i	0.96	10
13	O=C(Nc1ccccc1)Nc1nnc(/C=C/c2ccccc2Cl)s1	100	i	1	/
14	CCN(/N=C/c1cccs1)c1cc(=O)n(C)c(=O)[nH]1	104	i	0.96	-62
15	O=C(COC(=O)C12CC3CC(CC(C3)C1)C2)Nc1ncc(Cl)cc1Cl	95	i	0.98	18
16	Cn1c2ccccc2c2cnn(CC(=O)N3CCCCC3)c(=O)c21	100	i	0.93	/
17	Cc1cc(C)c(S(=O)(=O)CCC(C)C)c(=O)[nH]1	97	i	1.1	/
18	COC(=O)/C=C1/N/C(=N\c2nc(C)cc(C)n2)N(c2ccc(Cl)cc2)C1=O	104	i	0.95	12
19	Cc1ccccc1NC(=O)Cc1nnc(SCc2ccc(Cl)c(Cl)c2)n1C	101	i	1.3	58
20	CC(=O)c1cccc(NC(=O)C2CCCC2)c1	100	i	0.96	25

entry	INS promoter inh cell count	PKD1 kinase inh	GALR2 agonist
11	132	-5	-2.6
12	121	1	-1.5
13	/	-7	-0.8
14	59	0	-0.6
15	145	-6	-1.7
16	/	/	/
17	/	3	/
18	125	-14	1.3
19	86	-5	-3.0
20	75	-4	0.0

# The listing continues.
entry	SMILES	RGS16-Gao HTS	HSV replic up	HSV replic up primary fold	INS promoter inh
21	COC(=O)c1ccc(CSc2nc(C(F)(F)F)c3c(c2C#N)CCC3)o1	103	/	/	/
22	COc1ccc(C2=NOC(C(=O)N3CCCCCC3)C2)cc1OC (stereo unspecified)	103	i	1	/
23	CN(CCCNC(=O)c1cn(C)c2ccc(S(=O)(=O)N(C)C)cc2c1=O)c1ccccc1	85	i	0.78	/
24	CCCCOC(=O)C1=C(C)Nc2ncnn2C1c1cc(OC)ccc1OC (stereo unspecified)	105	i	0.82	-46
25	CN=c1scc(C)n1/N=C/c1ccc(O)cc1O	103	i	0.96	18
26	Cc1ccc(-c2nnc3cccc(Cl)n23)cc1	86	i	0.76	/
27	COC(=O)c1c(C)oc2ccc(N(C(=O)Oc3ccccc3)S(=O)(=O)c3ccccc3)cc12	101	i	0.79	-17
28	NS(=O)(=O)c1ccc(CNC(=O)c2cc(-c3cccs3)nc3ccccc23)cc1	104	i	0.89	/
29	Cc1ccc(NC(=O)C(=O)NCCN2CCN(C(=S)Nc3ccccc3)CC2)cc1	103	i	0.97	-9
30	O=C(Nc1ccc2c(c1)OCO2)C1CCN(S(=O)(=O)c2ccc3c(c2)OCCO3)CC1	97	i	1.1	7

entry	INS promoter inh cell count	PKD1 kinase inh	GALR2 agonist
21	/	-11	0.1
22	/	-6	0.3
23	/	9	-0.6
24	80	1	1.4
25	87	-1	-1.4
26	/	8	/
27	100	-3	-1.4
28	/	/	/
29	169	1	-0.3
30	144	-11	-0.1

# Going on with the list.
entry	SMILES	RGS16-Gao HTS	HSV replic up	HSV replic up primary fold	INS promoter inh
31	CCN1CCCC1CNC(=O)C1CCN(Cc2nc(-c3cccc(Br)c3)oc2C)CC1 (stereo unspecified)	96	/	/	/
32	Cc1ccc(/C(=N/Nc2nc3ccccc3s2)C2=C(O)c3ccccc3C2=O)cc1	116	i	1	8
33	CN(C)CCNC(=O)C12CC3(C)CC(C)(CC(C)(C3)C1)C2	107	i	0.93	5
34	CCOC(=O)C1=NN(c2ccc(Cl)cc2)/C(=C/C2=NCCc3cc(OC)c(OC)cc32)S1	95	i	1.2	/
35	CCOC(=O)C1CCN(S(=O)(=O)c2cccc(-c3cn4cccc(C)c4n3)c2)CC1	97	i	0.94	-31
36	CCOC(=O)c1cnc(-c2ccccc2)nc1Oc1ccc(Cl)c(Cl)c1	119	i	0.89	-25
37	CCN(CC)S(=O)(=O)c1ccc2oc(SCC(=O)NCc3ccccc3)nc2c1	101	i	0.56	25
38	COc1ccc(Nc2nc3ccccc3c(=O)[nH]2)cc1	89	i	0.94	/
39	Cc1ccccc1NS(=O)(=O)c1cc(C(=O)Nc2ccccc2-c2ccccc2)ccc1Cl	99	i	0.93	-88
40	CCOC(=O)c1cnn(-c2c(Cc3ccccc3)c(C)nc3c(-c4ccccc4)c(C)nn23)c1N	116	i	0.9	-53

entry	INS promoter inh cell count	PKD1 kinase inh	GALR2 agonist
31	/	15	-2.8
32	66	2	/
33	111	-3	-0.7
34	/	/	/
35	91	-5	-1.1
36	81	10	-2.6
37	90	-1	-1.6
38	/	/	/
39	103	-3	-0.5
40	149	-10	-1.1

# Carrying on.
entry	SMILES	RGS16-Gao HTS	HSV replic up	HSV replic up primary fold	INS promoter inh
41	Cc1ccc(/C=C2\SC(=S)N(CC3CCCO3)C2=O)o1 (stereo unspecified)	89	i	1.3	/
42	CC1CCN(c2nc(CN3CCCCC3)nc3scc(-c4ccccc4)c23)CC1	100	i	0.82	-168
43	CCNC(=O)COC(=O)c1ccc(-n2nc(C)cc2C)cc1	99	i	0.87	-7
44	OCCNC(=S)NCCc1ccccc1	128	i	1.1	10
45	O=C(CN1CCOCC1)NN1CC(=O)N(c2ccc(Cl)cc2)CC1=O	100	i	1.2	/
46	COc1ccc(CCNC(=O)CSCc2ccc([N+](=O)[O-])cc2)cc1	106	i	0.99	9
47	CNC(=O)c1csc(-c2ccc(Cl)cc2)n1	97	i	0.91	/
48	O=C(CN1CCN(Cc2ccc(Cl)cc2)CC1)N/N=C/c1cccs1	98	i	0.97	/
49	O=C(Nc1ccc2c(c1)OCO2)C(c1ccc(Cl)cc1)N1CCN(C(=O)c2ccco2)CC1 (stereo unspecified)	105	i	1	70
50	COc1ccc(CCn2c(C)cc(C(=O)CSc3nnc(N)s3)c2C)cc1	100	/	/	0

entry	INS promoter inh cell count	PKD1 kinase inh	GALR2 agonist
41	/	/	/
42	103	6	-0.5
43	78	3	/
44	74	-2	0.7
45	/	/	/
46	76	0	-0.6
47	/	1	/
48	/	/	/
49	129	-8	-0.2
50	60	-11	-1.3

# Carrying on.
entry	SMILES	RGS16-Gao HTS	HSV replic up	HSV replic up primary fold	INS promoter inh
51	COc1ccc(C2C(C(=O)N3CCN(c4ccccn4)CC3)CCC(=O)N2c2cc(OC)c(OC)c(OC)c2)cc1 (stereo unspecified)	110	i	0.96	17
52	C=CCNCCCOc1ccc(C(C)(C)c2ccccc2)cc1	104	i	0.86	20
53	COc1ccc(COc2cccnc2N)cc1	105	i	0.95	/
54	CC(C)(C)c1cc2cccnc2n1Cc1ccccc1	108	i	0.86	-51
55	Cc1ccc(Nc2cc(C)c3ccc(O)cc3n2)cc1C	100	i	0.86	/
56	Cc1ccc(N(CC(=O)NCc2ccncc2)S(C)(=O)=O)cc1Cl	101	i	0.98	-7
57	Cc1cccc(NC(=O)C(C)n2cc([N+](=O)[O-])cn2)n1 (stereo unspecified)	91	i	0.95	12
58	CCCCc1ccc(S(=O)(=O)NC2CCS(=O)(=O)C2)cc1 (stereo unspecified)	108	i	1	/
59	Cc1ccc(N2CCN(C(=S)Nc3ccccc3)CC2)cc1	106	i	0.93	/
60	C(=N\Nc1nc(Nc2ccccc2)nc(N2CCOCC2)n1)/c1c[nH]c2ccccc12	106	i	0.59	-20

entry	INS promoter inh cell count	PKD1 kinase inh	GALR2 agonist
51	119	-2	/
52	171	-2	0.1
53	/	/	/
54	146	5	-5.5
55	/	/	/
56	114	-1	0.6
57	128	-4	/
58	/	/	/
59	/	3	/
60	97	-4	-1.9

# The list continues:
entry	SMILES	RGS16-Gao HTS	HSV replic up	HSV replic up primary fold	INS promoter inh
61	CCN(CC)CCC(c1cc(OC)c(OC)c(OC)c1)c1c(OC)cc(OC)c2c(C)cc(=O)oc12 (stereo unspecified)	102	i	0.82	/
62	O=C(CSc1nnc(-c2ccccn2)n1Cc1ccccc1)N1CCOCC1	98	i	0.95	/
63	O=C(CSc1nccn1-c1ccccc1)NCc1ccc2c(c1)OCO2	96	i	0.94	64
64	Cc1ccc(S(=O)(=O)NCCC(=O)N2CCCCC2)cc1	/	/	/	/
65	Cc1ccc(CC(=O)c2ccc(Cl)cc2)cc1	103	i	0.94	/
66	CCOc1c(Br)ccc2c1sc1nc[nH]c(=O)c12	95	i	0.96	42
67	CC(C)CCN1CCN(Cc2cccc(C(F)(F)F)c2)CC1CCO (stereo unspecified)	92	i	0.95	/
68	Cc1ccc(CN(C(=O)C(F)(F)F)C(C(=O)NC2CCCCC2)c2ccco2)cc1 (stereo unspecified)	102	i	1	-412
69	O=S(=O)(NCCCN1CCOCC1)c1ccc2c(c1)OCCO2	106	i	1	/
70	Nc1c(C(=O)NCCN2CCOCC2)c2nc3ccccc3nc2n1CCc1ccccc1F	106	i	0.73	/

entry	INS promoter inh cell count	PKD1 kinase inh	GALR2 agonist
61	/	/	/
62	/	-2	/
63	53	-2	1.0
64	/	-5	-1.8
65	/	/	/
66	110	-9	-1.8
67	/	-5	/
68	8	-5	-2.1
69	/	2	/
70	/	-7	5.3*

# Continuation:
entry	SMILES	RGS16-Gao HTS	HSV replic up	HSV replic up primary fold	INS promoter inh
71	Cc1cc2cc(OCC(=O)O)ccc2n1C	103	i	0.93	26
72	COc1ccc(NCC(=O)N2CCCC2)cc1Cl	97	i	1	14
73	O=C(NC1CCCCC1)C(c1ccc2ncccc2c1)N(Cc1ccc(F)cc1)C(=O)c1ccc2c(c1)OCCO2 (stereo unspecified)	104	/	/	-35
74	O=C(O)c1ccccc1S(=O)(=O)NCC(O)COc1ccc(Br)cc1 (stereo unspecified)	103	i	0.94	-4
75	O=C(CN1CCCN(Cc2ccc(F)cc2Cl)C1=O)NC1CCCCCC1	106	i	1.2	-48
76	N#Cc1ccccc1NC(=O)Nc1ccccc1	100	i	0.86	/
77	O=C(NCc1ccco1)c1ccc(C(F)(F)F)cc1	105	i	0.99	78*
78	O=C(O)CCCn1cc(NC(=O)c2ccc(F)cc2)cn1	104	i	0.82	/
79	CCOc1ccc(-c2cc(CCCC(=O)NCc3ccc(C)cc3)no2)cc1	101	/	/	/
80	COc1ccccc1C(=O)C1CCCN(C(=O)c2cccc(-n3cccn3)c2)C1 (stereo unspecified)	103	i	0.94	/
81	COc1ccccc1/C=N/NC(=Nc1ccc(C)cc1)c1nc2ccccc2s1	106	/	/	3
82	CC1=CC(C)(C)NC(=S)N1c1cccc(C)c1	104	i	0.92	23
83	COc1ccc(C(=O)NCC(=O)OCC(=O)N2CCc3ccccc32)cc1	100	i	0.87	-50

entry	INS promoter inh cell count	PKD1 kinase inh	GALR2 agonist
71	65	-4	-2.1
72	144	2	/
73	93	4	-0.9
74	155	-3	-2.0
75	85	-4	0.2
76	/	-3	/
77	57*	-1	/
78	/	-2	/
79	/	-8	-0.5
80	/	7	/
81	90	-7	-0.9
82	152	-5	-0.8
83	81	0	/
